# FGF22 binding: binders of human FGF22 protein, primary screen, FGF22 synaptogenesis inhibitor project, biophysical, thermal shift, single point; AID 651658, 2012; calls only at 9.99 µM; hit rate 1.5% among 340,000; recombinant FGF22 thermal shift, SYPRO orange fluorescence; percent of sucrose octasulfate shift, DMSO zero; Fibroblast growth factor 22 (Homo sapiens), Q9HCT0;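 active = melting point raised past a set limit in the mean and every replicate; three in four hits are not shown here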
# Target sequence (Q9HCT0 whole entry, looked up): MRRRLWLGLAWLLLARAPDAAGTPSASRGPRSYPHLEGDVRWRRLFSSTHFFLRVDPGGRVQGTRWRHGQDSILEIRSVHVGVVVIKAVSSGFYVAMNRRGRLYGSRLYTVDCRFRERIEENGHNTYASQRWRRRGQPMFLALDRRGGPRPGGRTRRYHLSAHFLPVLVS
# Calls only; i = inactive. Only part of the results is shown; rates above refer to the full screens.
SMILES,FGF22 binding
CC(C)NC(=O)N(C)C[C@@H]1Oc2c(NC(=O)Nc3ccc4c(c3)OCO4)cccc2C(=O)N([C@H](C)CO)C[C@H]1C,i
CN1C(=O)c2cc(NC(=O)c3cnccn3)ccc2OC[C@H]2O[C@@H](CC(=O)NCC3CC3)CC[C@@H]21,i
CCC(=O)N1CC2(C1)CN(C(=O)c1ccccn1)[C@@H](CO)c1c2c2ccc(OC)cc2n1C,i
CCCNC(=O)N1[C@H](CO)[C@@H](c2ccc(C3=CCCCC3)cc2)[C@@H]1C#N,i
CCS(=O)(=O)Nc1ccc2c(c1)C(=O)N(C)[C@H]1CC[C@@H](CC(=O)N3CCN(C)CC3)O[C@@H]1CO2,i
COc1ccc(S(=O)(=O)Nc2ccc3c(c2)CC(=O)N([C@H](C)CO)C[C@H](C)[C@@H](CN(C)C(=O)Nc2ccccc2)O3)cc1,i
Cc1ccc(S(=O)(=O)N(C)C[C@@H]2OCCCC[C@H](C)Oc3ccc(NC(=O)CCCCCC(=O)Nc4ccccc4N)cc3C(=O)N([C@H](C)CO)C[C@@H]2C)cc1,i
CC(C)NC(=O)N1C[C@@H]2[C@H](c3ccccc31)[C@H](CO)N2Cc1ccc(Cl)cc1,i
CN(C)C(=O)C[C@H]1CC[C@H](NC(=O)C2CCC2)[C@H](CO)O1,i
O=C(C[C@@H]1CC[C@@H]2[C@H](COC[C@@H](O)CN2S(=O)(=O)c2ccccc2)O1)Nc1ccc(-c2ccccc2)cc1,i
CC(C)NC(=O)Nc1ccc2c(c1)CC(=O)N([C@H](C)CO)C[C@H](C)[C@H](CN(C)C(=O)Nc1ccc3c(c1)OCO3)O2,i
COCc1cn(CC[C@H]2CC[C@H](NC(=O)Nc3ccc(Cl)cc3)[C@H](CO)O2)nn1,i
CNC[C@H]1Oc2c(NS(=O)(=O)c3ccccc3)cccc2C(=O)N([C@@H](C)CO)C[C@H]1C,i
CO[C@H]1CN(C)C(=O)c2cc(NC(=O)Nc3ccccc3)ccc2OC[C@@H](C)N(C(C)=O)C[C@H]1C,i
Cc1noc(C)c1NC(=O)N(C)C[C@H]1Oc2ccc(NC(=O)Nc3ccc(F)cc3)cc2CC(=O)N([C@H](C)CO)C[C@H]1C,i
CCC(=O)Nc1ccc2c(c1)OC[C@@H](C)N(Cc1ccccc1C(=O)O)C[C@H](C)[C@@H](OC)CN(C)C2=O,i
COc1ccccc1Cc1c(-c2ccccc2)nc2c3ccccc3ccn12,i
COC(=O)C1=C(C)N(C)C(=NCC2CC2)NC1c1ccccc1C(F)(F)F (stereo unspecified),i
CO[C@H]1CN(C)C(=O)c2cc(NC(=O)c3ccc4c(c3)OCO4)ccc2OC[C@@H](C)N(CC2CC2)C[C@H]1C,i
C[C@@H]1CN([C@H](C)CO)C(=O)Cc2cc(NC(=O)C3CCCCC3)ccc2O[C@@H]1CN(C)Cc1ccc(Cl)c(Cl)c1,i
Cc1noc(C)c1NC(=O)N(C)C[C@@H]1Oc2ccc(NC(=O)CCN3CCOCC3)cc2CC(=O)N([C@H](C)CO)C[C@@H]1C,i
CCC(=O)N(C)C[C@@H]1Oc2ncc(C#CC3(O)CCCC3)cc2C(=O)N([C@@H](C)CO)C[C@H]1C,i
C[C@@H]1CN([C@H](C)CO)C(=O)c2cc(NS(=O)(=O)c3cn(C)cn3)ccc2O[C@@H](C)CCCCO[C@H]1CN(C)C(=O)Nc1ccc(C(F)(F)F)cc1,i
C[C@H](CO)N1C[C@H](C)[C@H](CN(C)C(=O)Cc2cccnc2)Oc2cc(C3=CCCCC3)ccc2S1(=O)=O,i
C[C@@H]1CN([C@@H](C)CO)S(=O)(=O)c2ccc(C#C[C@@H](C)O)cc2O[C@H]1CN(C)C(=O)C1CC1,i
Cc1ccc(S(=O)(=O)Nc2ccc3c(c2)C(=O)N([C@@H](C)CO)C[C@@H](C)[C@@H](CN(C)Cc2ccc(-c4ccccc4)cc2)O3)cc1,i
CCCN(CCC)c1cc(=O)nc2ccccn12,i
CC(C)C(=O)Nc1ccc2c(c1)C(=O)N(C)[C@H]1CC[C@@H](CC(=O)NCC3CC3)O[C@H]1CO2,i
O=C(NCCN1CCCCC1)[C@@H]1[C@@H](CO)[C@@H]2Cn3c(cccc3=O)[C@@H]2N1C(=O)C1CC1,i
C[C@H]1CN([C@@H](C)CO)C(=O)Cc2cc(NC(=O)Cn3cnnn3)ccc2O[C@H]1CN(C)C(=O)Nc1cccc2ccccc12,i
O=C(C[C@@H]1C=C[C@H](NC(=O)Nc2ccccc2F)[C@@H](CO)O1)NCc1ccc(F)cc1,i
O=C(N[C@H]1CC[C@H](CCNS(=O)(=O)c2ccc(F)cc2)O[C@@H]1CO)C1CCOCC1,i
O=C(NCC[C@@H]1CC[C@H](NS(=O)(=O)c2cccc(F)c2)[C@@H](CO)O1)C1CCCCC1,i
CCCNC(=O)N1CC[C@@H]2[C@@H](CO)N(C)c3ccc(-c4ccc(F)cc4)cc3[C@@H]21,i
CO[C@@H](CN(C)Cc1ccc(-c2ccccn2)cc1)[C@@H](C)CN(C(=O)Nc1ccc(F)cc1)[C@H](C)CO,i
CN1[C@@H]2Cn3c(ccc(-c4cccnc4)c3=O)[C@H]1[C@@H](C(=O)N1CCC(Cc3ccccc3)CC1)[C@@H]2CO,i
COCCNC(=O)[C@@H]1[C@@H](CO)[C@@H]2Cn3c(cccc3=O)[C@H]1N2Cc1cc(F)ccc1F,i
Cc1cc(C(=O)Nc2cccc3c2O[C@H](CN(C)C(=O)Nc2ccccc2)[C@H](C)CN([C@@H](C)CO)C3=O)n(C)n1,i
O=C(C[C@@H]1C[C@@H]2c3cc(NC(=O)NC4CCCC4)ccc3O[C@@H]2[C@@H](CO)O1)NCc1cccc(F)c1,i
CCS(=O)(=O)N[C@H]1C=C[C@H](CC(=O)NCc2ccc(F)cc2)O[C@H]1CO,i
CCCC#Cc1cnc2c(c1)C(=O)N([C@@H](C)CO)C[C@H](C)[C@H](CN(C)S(=O)(=O)c1ccccc1)O2,i
C[C@H](NC(=O)C[C@H]1C=C[C@H](NC(=O)Cc2ccccn2)[C@H](CO)O1)c1ccccc1,i
O=C(NCC[C@H]1CC[C@H](NC(=O)C2CCOCC2)[C@@H](CO)O1)c1ccc(F)cc1,i
Cc1cc(=O)c2c(ccc3c(=O)cc(C)[nH]c32)[nH]1,i
COc1ccc(S(=O)(=O)N(C)C[C@H]2Oc3ccc(NC(=O)Nc4ccc5c(c4)OCO5)cc3CC(=O)N([C@H](C)CO)C[C@H]2C)cc1,i
COCC(=O)Nc1ccc2c(c1)[C@H]1C[C@H](CC(=O)NCc3ccc4c(c3)OCO4)O[C@@H](CO)[C@H]1O2,i
CN1C(=O)c2cc(NC(=O)c3cscn3)ccc2OC[C@@H]2O[C@@H](CC(=O)NCc3ccc(Cl)c(Cl)c3)CC[C@H]21,i
C[C@@H]1CN([C@H](C)CO)C(=O)c2cc(-c3ccccc3F)cnc2O[C@@H]1CN(C)Cc1cccc(F)c1,i

# Reformatted: entries from further up
compound	FGF22 binding
COCCNC(=O)[C@@H]1[C@@H](CO)[C@@H]2Cn3c(cccc3=O)[C@H]1N2Cc1cc(F)ccc1F	i
Cc1cc(C(=O)Nc2cccc3c2O[C@H](CN(C)C(=O)Nc2ccccc2)[C@H](C)CN([C@@H](C)CO)C3=O)n(C)n1	i
O=C(C[C@@H]1C[C@@H]2c3cc(NC(=O)NC4CCCC4)ccc3O[C@@H]2[C@@H](CO)O1)NCc1cccc(F)c1	i
CCS(=O)(=O)N[C@H]1C=C[C@H](CC(=O)NCc2ccc(F)cc2)O[C@H]1CO	i
CCCC#Cc1cnc2c(c1)C(=O)N([C@@H](C)CO)C[C@H](C)[C@H](CN(C)S(=O)(=O)c1ccccc1)O2	i
C[C@H](NC(=O)C[C@H]1C=C[C@H](NC(=O)Cc2ccccn2)[C@H](CO)O1)c1ccccc1	i
O=C(NCC[C@H]1CC[C@H](NC(=O)C2CCOCC2)[C@@H](CO)O1)c1ccc(F)cc1	i
Cc1cc(=O)c2c(ccc3c(=O)cc(C)[nH]c32)[nH]1	i
COc1ccc(S(=O)(=O)N(C)C[C@H]2Oc3ccc(NC(=O)Nc4ccc5c(c4)OCO5)cc3CC(=O)N([C@H](C)CO)C[C@H]2C)cc1	i
COCC(=O)Nc1ccc2c(c1)[C@H]1C[C@H](CC(=O)NCc3ccc4c(c3)OCO4)O[C@@H](CO)[C@H]1O2	i
CN1C(=O)c2cc(NC(=O)c3cscn3)ccc2OC[C@@H]2O[C@@H](CC(=O)NCc3ccc(Cl)c(Cl)c3)CC[C@H]21	i
C[C@@H]1CN([C@H](C)CO)C(=O)c2cc(-c3ccccc3F)cnc2O[C@@H]1CN(C)Cc1cccc(F)c1	i

# Remaining list, next part.
SMILES,FGF22 binding
O=C(C[C@@H]1CC[C@@H]2[C@H](COC[C@H](O)CN2S(=O)(=O)c2ccc(Oc3ccccc3)cc2)O1)NCCN1CCCCC1,i
Cc1ccccc1-c1cnc2c(c1)C(=O)N([C@@H](C)CO)C[C@H](C)[C@@H](CN(C)Cc1ccccc1F)O2,i
Cc1noc(C)c1NC(=O)Nc1ccc2c(c1)C(=O)N([C@H](C)CO)C[C@H](C)[C@@H](CN(C)S(C)(=O)=O)OCCCC[C@H](C)O2,i
Cc1noc(C)c1NC(=O)N(C)C[C@@H]1Oc2ncc(C#CC3CC3)cc2C(=O)N([C@@H](C)CO)C[C@H]1C,i
CC(C)C#Cc1ccc2c(c1)O[C@@H](CN(C)C(=O)c1cccc(F)c1)[C@@H](C)CN([C@H](C)CO)S2(=O)=O,i
CC(C)NC(=O)N1C[C@H]2[C@@H](c3ccccc31)[C@H](CO)N2C(=O)c1ccccn1,i
COC(=O)[C@@H]1[C@@H](CO)[C@@H]2Cn3c(ccc(-c4ccncc4)c3=O)[C@@H]2N1Cc1cccc(F)c1,i
C[C@@H]1CCCCO[C@H](CN(C)C(=O)Nc2ccc(F)cc2)[C@@H](C)CN([C@H](C)CO)C(=O)c2cc(NC(=O)C3CCCCC3)ccc2O1,i
CCCNC(=O)N1[C@@H]2CN(C(=O)Nc3cccc(Cl)c3)c3ccccc3[C@@H]2[C@@H]1CO,i
CN1C[C@@H]2[C@H](c3ccccc31)[C@H](CO)N2Cc1ccccc1Cl,i
N#C[C@@H]1[C@H](c2ccccc2-c2ccc(F)cc2)[C@H](CO)N1C(=O)Cc1ccccc1,i
C#CCN(C[C@H]1[C@H](OC(=O)Nc2c(C)noc2C)[C@H](OC(=O)Nc2c(C)noc2C)CN(C(=O)OC(C)C)N1C(=O)OC(C)C)S(=O)(=O)c1ccc(C)cc1,i
C[C@@H]1CN([C@H](C)CO)C(=O)CCCn2nncc2CO[C@H]1CN(C)C(=O)Nc1cccc(F)c1,i
C[C@@H]1CN([C@H](C)CO)S(=O)(=O)c2ccc(C#CC3CC3)cc2O[C@H]1CN(C)Cc1ccccn1,i
CC(C)NC(=O)NCC[C@@H]1CC[C@@H](NS(=O)(=O)c2ccc(Oc3ccccc3)cc2)[C@H](CO)O1,i
O=C(NCC[C@H]1CC[C@@H](NS(=O)(=O)c2cccc(F)c2)[C@@H](CO)O1)C1CCC1,i
O=C(C[C@@H]1CC[C@@H](NS(=O)(=O)c2ccc(F)cc2)[C@@H](CO)O1)NCCN1CCCCC1,i
C[C@@H]1CN([C@H](C)CO)C(=O)c2cc(N(C)C)ccc2O[C@@H]1CN(C)Cc1ccncc1,i
CCCC#Cc1cnc2c(c1)C(=O)N([C@@H](C)CO)C[C@H](C)[C@H](CN(C)C(=O)Cc1ccccc1)O2,i
CNC[C@H]1Oc2ncc(C#CCC3CCCC3)cc2C(=O)N([C@@H](C)CO)C[C@H]1C,i
CS(=O)(=O)Nc1ccc2c(c1)[C@H]1C[C@@H](CC(=O)NCc3ccccc3F)O[C@@H](CO)[C@H]1O2,i
O=C(CCN1CCCCC1)N[C@H]1CC[C@@H](CCn2cc(-c3ccccc3)nn2)O[C@H]1CO,i
C[C@H]1CN([C@@H](C)CO)C(=O)c2cccc(NC(=O)Nc3ccccc3)c2O[C@H]1CN(C)Cc1ccc2c(c1)OCO2,i
CO[C@H]1CN(C)C(=O)c2cc(NC(=O)c3cc(C)on3)ccc2OC[C@@H](C)N(C(C)=O)C[C@@H]1C,i
C[C@@H]1CN([C@@H](C)CO)C(=O)c2cc(NS(=O)(=O)c3ccc(F)cc3)ccc2O[C@@H](C)CCCCO[C@H]1CN(C)C(=O)c1ccccc1,i
O=C(NCc1ccc(F)cc1)[C@H]1[C@H](CO)[C@H]2Cn3c(cccc3=O)[C@@H]1N2,i
C[C@@H]1CN([C@@H](C)CO)C(=O)CCCn2nncc2CO[C@H]1CN(C)Cc1ccc2c(c1)OCCN2C,i
Cc1ccc(S(=O)(=O)Nc2ccc3c(c2)CC(=O)N([C@@H](C)CO)C[C@H](C)[C@H](CN(C)Cc2ccccc2)O3)cc1,i
CNC(=O)C[C@H]1CC[C@H]2[C@@H](COc3ccc(NS(=O)(=O)c4ccc(F)cc4)cc3C(=O)N2C)O1,i
O=C(O)C[C@@H]1CC[C@H](NC(=O)c2ccncc2)[C@@H](CO)O1,i
C[C@H](CO)N1C[C@H](C)[C@@H](CN(C)C(=O)Nc2ccc(C(F)(F)F)cc2)OCCCC[C@H](C)Oc2ccc(NC(=O)Nc3ccc(F)cc3)cc2C1=O,i
Cn1cnc(CCNC(=O)C[C@H]2CC[C@@H]3[C@H](COC[C@@H](O)CN3C(=O)C3CCCC3)O2)c1,i
Cc1nc(N2[C@H](C#N)[C@H](c3ccccc3)[C@H]2CO)sc1C,i
C[C@H](CO)N1C[C@H](C)[C@H](CN(C)C(=O)C2CCCCC2)Oc2cc(C#CC(C)(C)O)ccc2S1(=O)=O,i
O=C(Nc1ccccc1)Nc1ccc2c(c1)[C@@H]1C[C@H](CC(=O)N3CCCCC3)O[C@H](CO)[C@@H]1O2,i
COc1ccc(S(=O)(=O)N(C)C[C@H]2Oc3c(NS(C)(=O)=O)cccc3C(=O)N([C@H](C)CO)C[C@H]2C)cc1,i
COc1ccc(CN(C)C[C@H]2OCCCC[C@H](C)Oc3ccc(NC(=O)Nc4ccc(OC)cc4)cc3C(=O)N([C@@H](C)CO)C[C@H]2C)cc1,i
CC(C)NC(=O)Nc1ccc2c(c1)C(=O)N([C@@H](C)CO)C[C@@H](C)[C@H](CN(C)Cc1ccncc1)O2,i

# Assay outcomes as filed in PubChem BioAssay.
